Bioassay records as filed in PubChem.
GIV-Gai inh: GIV-Galpha-i interaction inhibition; P08753; Galpha-i3/FITC-GIV peptide fluorescence polarization, 90 min; hits give low values; scaled: aluminum fluoride 0%, vehicle 100%; percent of control (FP), % (no concentration beside the values); actives 0.42% (n = 210,000);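 active = replicate mean at 85% of control or lower, very high polarization wells dropped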;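 also: wells of about 15 µL received 100 nL stock; the first replicate is given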
Target sequence (P08753 whole entry, looked up): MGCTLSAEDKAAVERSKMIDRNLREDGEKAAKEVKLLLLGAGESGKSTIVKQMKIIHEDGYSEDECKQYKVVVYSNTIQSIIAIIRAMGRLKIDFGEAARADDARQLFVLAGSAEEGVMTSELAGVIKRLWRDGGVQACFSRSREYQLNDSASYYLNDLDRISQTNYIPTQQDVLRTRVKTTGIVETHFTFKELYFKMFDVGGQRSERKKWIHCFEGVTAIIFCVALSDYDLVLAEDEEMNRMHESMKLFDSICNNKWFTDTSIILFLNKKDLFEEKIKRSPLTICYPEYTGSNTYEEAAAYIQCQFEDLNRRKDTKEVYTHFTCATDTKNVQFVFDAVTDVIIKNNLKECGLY
* marks the source's active call; other numbers are inactive results.

SMILES | GIV-Gai inh
COc1ccc(-n2c(=O)c3c(n4cnnc24)-c2ccccc2CC32CCCC2)cc1 | 110
COc1ccc(-c2oc(NC(C)=O)c(C#N)c2-c2ccc(OC)cc2)cc1 | 108
CNC(=O)N1c2ccccc2NC2=C(C(=O)CC(C)(C)C2)C1c1ccc(OC)cc1 (configuration not stated) | 102
CC1=NS(=O)(=O)c2cccnc2N1c1ccc(Cl)cc1 | 109
Cc1nc(-c2cc(NC(=O)c3ccc(Cl)cc3)c(C)s2)no1 | 98
CCOC(=O)C1CCN(c2ncnc3c2cnn3-c2ccc(OC)cc2)CC1 | 112
Cc1nn(-c2ccc3nnc(C)n3n2)c2c1C(c1ccc(C(C)C)cc1)CC(=O)N2 (configuration not stated) | 99
Cc1ccc(-c2ccc(C(=O)NC3CC3)cn2)cc1 | 106
CCCCCCCCOC1OC(COC(C)=O)C(OC(C)=O)C(OC(C)=O)C1NC(C)=O (configuration not stated) | 117
COC(=O)c1ccccc1NC(=O)c1sc2ncn(CC(=O)Nc3cccc(C(F)(F)F)c3)c(=O)c2c1C | 109
O=C(NC(C(=O)N1CCCc2ccccc21)c1ccccc1)C1CC1 (configuration not stated) | 99
Cc1ccc(-c2cn3nc(C)c(C)nc3n2)cc1 | 116
CN(CCO)CCCCOc1ccc2c(c1)C(=O)c1cc(OCCCCN(C)CCO)ccc1-2 | 110
O=C(C1CCN(c2ncnc3c2oc2ccccc23)CC1)N1CCN(C2CCCCC2)CC1 | 108
COc1ccccc1CNC1=NCCCNC12CCCCC2 | 102
Cc1cccc(C(=O)Nc2ccc3nc(SCc4cc(=O)c5cc(C)ccc5[nH]4)sc3c2)c1 | 102
Cn1c(SCc2nc(-c3ccc(F)cc3)no2)nc2cc(-c3ccccc3)sc2c1=O | 99
COc1cccc(CNC(=O)c2ccc3nc(-c4ccccc4)c(-c4ccccc4)nc3c2)c1 | 118
Cc1cccc(-n2nc3c(c2NC(=O)c2ccc(S(=O)(=O)N4CCOCC4)cc2)CSC3)c1C | 112
O=C1C2C(c3ccc([N+](=O)[O-])cc3)OC3(C(=O)c4ccccc4C3=O)C2C(=O)N1c1ccc(Cl)cc1 (configuration not stated) | 109
O=c1/c(=C/c2cn(Cc3c(F)cccc3Cl)c3ccccc23)sc2nc3ccccc3n12 | 108
Cc1csc(-c2cc(S(=O)(=O)N3CCN(C(C)C)CC3)cn2CC(=O)N2CCCCC2)n1 | 97
Clc1ccc(-c2noc(-c3cc(N4CCCC4)nc4ccccc34)n2)cc1 | 118
CCOC(=O)CNC(=O)N1CCCC1c1c(C)noc1CC (configuration not stated) | 101
C=CCOC(=O)C1=C(C)NC(SCC(=O)Nc2nccs2)=C(C#N)C1c1cccs1 (configuration not stated) | 110
Cc1ccc2c(c1)Oc1ccc(S(=O)(=O)N3CCc4ccccc4C3)cc1C(=O)N2 | 106
CCOC(=O)C(=O)N1c2ccccc2Sc2ccc(C(F)(F)F)cc21 | 109
O=c1n(Cc2ccc(F)cc2)nc2c(S(=O)(=O)N3CCN(c4ccc(F)cc4)CC3)cccn12 | 103
O=C1CSC2(C(=O)Nc3ccccc32)N1c1ccc(Cl)c(Cl)c1 (configuration not stated) | 109
CC(C)Nc1ccc2nnc(C3CCC3)n2n1 | 106
COC(=O)c1ccc(Nc2nc(-c3ccc([N+](=O)[O-])cc3)nc3ccccc23)cc1 | 107
C(#Cc1ccc(-c2nc(-c3ccccc3)c(-c3ccc(Oc4ccccc4)cc3)[nH]2)cc1)c1ccccc1 | 104
CCc1ccc(C2NC(=O)c3c(sc4c3CCCC4)N2)cc1 (configuration not stated) | 104
COc1cccc2c1OC1(CCC(C)CC1)N1N=C(c3cccs3)CC21 (configuration not stated) | 105
CC1CCN(S(=O)(=O)c2ccc3c(c2)[nH]c2nc4nc(-c5ccc(Br)cc5)cn4nc23)CC1 | 123
CCCCCCNC(=O)c1cncc(-c2ccc(C)cc2)c1 | 99
O=C1CC(C(=O)c2ccc(Br)cc2)c2c(n[nH]c2-c2ccccc2)N1 (configuration not stated) | 101
CCNc1nc(NCC)n2c(SC3CCc4ccccc4C3=O)nnc2n1 (configuration not stated) | 103
Cc1nn2c(S(=O)(=O)N3CCC(C)CC3)c(C)nc2s1 | 98
CCc1ccc(C2(O)CC(C(F)(F)F)=NN2C(=O)c2cccc(C)c2)cc1 (configuration not stated) | 116
CCCCN(CCCC)CC(O)CN(c1ccc(OC)cc1)S(=O)(=O)c1ccc(C)cc1 (configuration not stated) | 109
CCOc1ccc(NC(=O)C2CCCN(C(=O)c3cc(C)cc(C)c3)C2)cc1 (configuration not stated) | 103
COc1cc(C2C(C#N)=C(N)N(c3ccc(C)cc3)C3=C2C(=O)CC(C)(C)C3)cc(OC)c1OC (configuration not stated) | 108
CN1CCN(C(=O)C2(C)CC(c3ccccc3)=NO2)CC1 (configuration not stated) | 107
CCOC(=O)C1=C(C)OC(N)=C(C#N)C1c1cccc(OCc2ccccc2)c1 (configuration not stated) | 108
Cc1nc(OCC(=O)NC2CCS(=O)(=O)C2)c2c(-c3cccc(F)c3)noc2n1 (configuration not stated) | 108
CC(NC(=O)CSc1nnc2c(n1)[nH]c1ccccc12)c1ccccc1 (configuration not stated) | 109
Cc1ccc(C(=O)C(C)n2c(=O)n3nc(-c4cccc(F)c4)nc3c3ccccc32)cc1C (configuration not stated) | 102
CC(=O)N1CCCc2cc(S(=O)(=O)N3CCC(C(=O)N4CCC(N5CCCCC5)CC4)CC3)ccc21 | 100
C/C=C/CSC1=C(C#N)C(c2cccs2)C(C(C)=O)=C(C)N1 (configuration not stated) | 114

Overlap with the part before: two compounds, followed by the next part.
SMILES | GIV-Gai inh
CC(=O)N1CCCc2cc(S(=O)(=O)N3CCC(C(=O)N4CCC(N5CCCCC5)CC4)CC3)ccc21 | 100
C/C=C/CSC1=C(C#N)C(c2cccs2)C(C(C)=O)=C(C)N1 (configuration not stated) | 114
CC(C)C(=O)NCCC1CCN(C(=O)NC2CCCCC2)CC1 | 105
O=C(NCCc1c[nH]c2ccccc12)c1cc(S(=O)(=O)N2CCSCC2)ccc1Cl | 101
NS(=O)(=O)c1ccc2nc(NC(=O)CCC3CCCCC3)sc2c1 | 107
COc1ccc2nc(-n3nc(C)c4c3NC(=O)CC4c3cnn(C)c3C)sc2c1 (configuration not stated) | 103
CCC1CCCCN1C(=O)c1sc2nc(C)nc(N3CCOCC3)c2c1C (configuration not stated) | 102
Cn1c(=O)oc2cc(S(=O)(=O)N3CCN(C(=O)C4CC4)CC3)ccc21 | 116
O=c1[nH]c(SCc2cccc(F)c2)nc2c1CN(Cc1ccccc1)CC2 | 105
CSC1=NC(=Nc2cccc(C(F)(F)F)c2)C2(CCCCC2)N1c1ccc(C)cc1 | 106
N#CC1=CN(c2ccc(I)cc2)c2cc(F)ccc2S1(=O)=O | 99
Cc1ccc(C)c(N2CC(O)(c3ccccc3)[N+]3=C2SCCC3)c1 (configuration not stated) | 108
CCN1CCN(Cc2nc(-c3ccc(N4CCSCC4)nc3)no2)CC1 | 121
O=C1C2C3c4ccccc4C(c4ccccc43)C2C(=O)N1Cc1cccnc1 (configuration not stated) | 96
CN(Cc1ccsc1)C(=O)C1CCCO1 (configuration not stated) | 96
CCCCC(=O)Nc1ccc(N2CCN(C(C)=O)CC2)c(C(=O)O)c1 | 106
Cc1cc(C(F)(F)F)c2c(N)c(C(=O)Nc3cccc(C(F)(F)F)c3)sc2n1 | 82*
O=c1c2cn[nH]c2nc(SCc2nc(-c3ccc4c(c3)OCO4)no2)n1-c1ccc(F)c(F)c1 | 106
COc1ccc(-c2[nH]nc3c2C(c2ccc(N4CCOCC4)c([N+](=O)[O-])c2)C(C#N)=C(N)O3)cc1 (configuration not stated) | 100
C=CCOc1ccc(C2C(C#N)=C(N)OC(C)=C2C(=O)OCC)cc1 (configuration not stated) | 106
CC1(C)CC(=O)C2=C(C1)OC1=C(C(=O)CC(C)(C)C1)C2c1cccs1 | 116
O=C(C1CCCCC1)N1CCN=C1N1CCCC1 | 102
CCN1CCN(c2ncnc3sc(C(=O)Nc4cccc(OC)c4)c(C)c23)CC1 | 120
CCCN1CC=C2C(C#N)=C(N)C(C#N)(C#N)C(c3ccc(OC)cc3)C2C1 (configuration not stated) | 111
O=C(NCc1nnc2n1CCCC2)c1cccs1 | 98
CCOC(=O)N1CCC(Nc2ncnc3c2cnn3-c2cccc(C)c2)CC1 | 108
CCOc1ccc(S(=O)(=O)N2CCN(c3ccccc3Cl)CC2)c2cccnc12 | 116
O=C(C1CC1)N1CCN(S(=O)(=O)c2cc(-c3noc(C4CCC4)n3)cs2)CC1 | 103
Cc1nc(-c2cc(S(=O)(=O)NCCc3ccccc3)c(C)s2)sc1C | 101
Cc1nnc(-c2c(C)[nH]c(C)c2S(=O)(=O)NC2CCCC2)o1 | 100
CCc1csc(C2CCN(C(=O)NC(C)C)CC2)n1 | 101
CCCCOc1ccc(C(=O)Nc2c3c(nn2-c2ccc([N+](=O)[O-])cc2)CS(=O)(=O)C3)cc1 | 104
COc1ccccc1N1CCN(S(=O)(=O)c2ccc(F)c(C(=O)Nc3cc(Cl)ccc3Cl)c2)CC1 | 100
CN1CCN(Cc2c(O)ccc3c(=O)c(-c4cccc(Cl)c4)c(C(F)(F)F)oc23)CC1 | 110
Cc1ccc(NC(=O)N2CCCC(c3nnc(C(=O)Nc4ccc(F)cc4)s3)C2)cc1Cl (configuration not stated) | 105
COc1cc2c(cc1OC)C(=O)CSC(c1cccs1)N2 (configuration not stated) | 107
CCOC(=O)Nc1ccc2c(c1)N(C(=O)N1CCOCC1)c1ccccc1CC2 | 106
NS(=O)(=O)c1ccc(NC(=O)c2nc(N3CCOCC3)c3oc4ccccc4c3n2)cc1 | 107
COCc1oc2c(cc(NS(=O)(=O)c3ccc(Cl)cc3)c3ccccc32)c1C(=O)OC | 117
O=S(=O)(c1cc(-c2noc(C3CCCC3)n2)cs1)N1CCCC1 | 96
Cc1ccc(NC(=O)C2C3CCCC2C3c2ccccc2)c(C)c1 (configuration not stated) | 101
O=C(CSc1nnc(-c2cc3ccccc3o2)n1-c1ccccc1)Nc1ccccc1O | 107

Entries above shown as hits in GIV-Gai inh.
SMILES | GIV-Gai inh
Cc1cc(C(F)(F)F)c2c(N)c(C(=O)Nc3cccc(C(F)(F)F)c3)sc2n1 | 82*

(listing goes on)
SMILES | GIV-Gai inh
CC1(C(=O)O)CC(=O)N=C2C=CC(Cl)=CN21 (configuration not stated) | 109
O=c1c2cc3c(cc2nc(SCc2nc(-c4ccc(Cl)cc4)no2)n1C1CCCC1)OCO3 | 108
O=C(O)CCC1(CCC(=O)O)c2ccccc2-c2nc3ccccc3cc21 | 108
CCc1cc2c(Nc3cc(Cl)ccc3OC)ncnc2s1 | 102
O=C(Nc1ccc(OC(F)(F)F)cc1)c1ccc(N2CC3CC(C2)c2cccc(=O)n2C3)c(NC(=O)c2cccnc2)c1 (configuration not stated) | 105
C=CCNC(=O)COc1ncnc2onc(-c3ccc(F)cc3)c12 | 103
Cc1ccc(C23CC4CC(CC(CNCCO)(C4)C2)C3)cc1 | 108
COc1cc(C2Nc3c(C)cc(C)cc3[C@H]3OCCC[C@@H]23)cc(Cl)c1OC (some centres not stated) | 96
Cc1cc(Br)ccc1NC(=O)c1sc2ncn(CC(=O)N3CC(C)CC(C)C3)c(=O)c2c1C (configuration not stated) | 105
O=C(Nc1ccc(-c2noc(-c3ccco3)n2)cc1)c1cccc(Br)c1 | 110
CCCCNc1nc(SCC(=O)NCc2ccccc2)nc2ccccc12 | 108
COC(=O)Cc1nc(Nc2cccc(Cl)c2)c2c(C)c(C)sc2n1 | 109
COC(=O)C1=C(N)n2c(s/c(=C\c3cc(Br)ccc3F)c2=O)=C(C#N)C1c1cc(Br)ccc1F (configuration not stated) | 108
CC1CCCN(C(=O)CN2C(=O)C3CCCN3C(=O)c3cc(F)ccc32)C1 (configuration not stated) | 95
CC1=CC(c2ccccc2)n2nnnc2N1 (configuration not stated) | 107
COc1ccc(Cl)cc1N(C)S(=O)(=O)c1ccc2[nH]cc(C(=O)NCCN3CCOCC3)c(=O)c2c1 | 103
Cc1c(C(=O)NCc2cccnc2)sc2ncnc(N3CCN(c4ccccc4F)CC3)c12 | 102
CNC(=O)c1cc(NS(=O)(=O)c2ccc(Cl)cc2)cnc1N1CCNCC1 | 104
Cc1nn2c(CNS(=O)(=O)c3c(C)nn(C)c3C)c(C)nc2s1 | 102
COc1ccc(NC(=O)CSc2nc3ccc(OC)cc3[nH]2)c(OC)c1 | 111
CC(C)c1cc(C2CCCN2Cc2cc(Br)ccc2F)on1 (configuration not stated) | 99
CCC(=O)Nc1cccc(-c2noc(C3CCCN(C(=O)c4cc(C)cc(C)c4)C3)n2)c1 (configuration not stated) | 107

Structures from the list above that contain two or more sulfur atoms, in the order listed:
SMILES | GIV-Gai inh
Cc1cccc(C(=O)Nc2ccc3nc(SCc4cc(=O)c5cc(C)ccc5[nH]4)sc3c2)c1 | 102
Cn1c(SCc2nc(-c3ccc(F)cc3)no2)nc2cc(-c3ccccc3)sc2c1=O | 99
Cc1cccc(-n2nc3c(c2NC(=O)c2ccc(S(=O)(=O)N4CCOCC4)cc2)CSC3)c1C | 112
Cc1csc(-c2cc(S(=O)(=O)N3CCN(C(C)C)CC3)cn2CC(=O)N2CCCCC2)n1 | 97
C=CCOC(=O)C1=C(C)NC(SCC(=O)Nc2nccs2)=C(C#N)C1c1cccs1 (configuration not stated) | 110
Cc1nn2c(S(=O)(=O)N3CCC(C)CC3)c(C)nc2s1 | 98
C/C=C/CSC1=C(C#N)C(c2cccs2)C(C(C)=O)=C(C)N1 (configuration not stated) | 114
O=C(NCCc1c[nH]c2ccccc12)c1cc(S(=O)(=O)N2CCSCC2)ccc1Cl | 101
NS(=O)(=O)c1ccc2nc(NC(=O)CCC3CCCCC3)sc2c1 | 107
O=C(C1CC1)N1CCN(S(=O)(=O)c2cc(-c3noc(C4CCC4)n3)cs2)CC1 | 103
Cc1nc(-c2cc(S(=O)(=O)NCCc3ccccc3)c(C)s2)sc1C | 101
COc1cc2c(cc1OC)C(=O)CSC(c1cccs1)N2 (configuration not stated) | 107
O=S(=O)(c1cc(-c2noc(C3CCCC3)n2)cs1)N1CCCC1 | 96
Cc1nn2c(CNS(=O)(=O)c3c(C)nn(C)c3C)c(C)nc2s1 | 102

These rows are one share of the data; rates above refer to the full screens.
